# Screening data (PubChem BioAssay)
# HSV augment: enhancers of HSV replication in host cells, fold increase, host cell viability. 220,000 tested, 0.005% active. maximum fold increase. HSV replication augmentation in cells;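 active = peak rise of 1.5-fold or more in the series; tested in PC3 cells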;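 also: first round at 10 µM; read as green reporter fluorescence; hits show the peak of a series up to 25 µM; 1 = signal of infected wells without compound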
# GALR2 ag: GALR2 receptor agonists, primary screen, cell-based; Galanin receptor type 2 (Homo sapiens), O43603; GALR2-expressing cells, agonist activation read-out; activation, %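 (tested at 5 µM)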; 140,000 tested, 0.48% active; AID 803, 2007;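 active = above mean plus 3 SD of all compounds, about 5% in these data, not always enough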;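 also: 0% = vehicle buffer wells and 100% = reference agonist at full effect; tested in CHO reporter cells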
# Target sequence (O43603 whole entry, looked up): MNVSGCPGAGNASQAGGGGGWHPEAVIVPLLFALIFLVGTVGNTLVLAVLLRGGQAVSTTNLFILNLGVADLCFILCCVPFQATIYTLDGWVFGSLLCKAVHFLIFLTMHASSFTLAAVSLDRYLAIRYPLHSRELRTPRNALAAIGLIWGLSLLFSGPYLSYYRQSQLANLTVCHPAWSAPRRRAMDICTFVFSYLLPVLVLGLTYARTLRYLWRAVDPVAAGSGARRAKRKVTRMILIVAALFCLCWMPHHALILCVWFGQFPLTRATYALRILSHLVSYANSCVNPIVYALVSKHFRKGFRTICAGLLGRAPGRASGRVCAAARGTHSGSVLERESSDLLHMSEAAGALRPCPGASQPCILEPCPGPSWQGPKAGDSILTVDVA
# INS promoter inh: inhibitors of insulin promoter-driven GFP, primary screen, imaging, TRM-6 cells (human fetal islet line), eGFP reporter, cell count; 130,000 tested, 0.9% active; reporter expression induced with tamoxifen; inhibition, % at 2 µM;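 active = inhibition above the mean plus 3 SD, with well images judged a real hit on visual review, cut at about 60% in these data, passing the limit was not always enough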
# PKD1 kinase inh: inhibitors of human PKD1 kinase, biochemical, fluorescence polarization; Serine/threonine-protein kinase D1 (Homo sapiens), Q15139; PKD1 kinase fluorescence polarization assay; inhibition, %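 (about 10 µM by stock and volumes)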; 200,000 tested, 0.056% active;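 active = inhibition of 50% or more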;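 also: controls were vehicle for no effect and a reference inhibitor for full effect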
# RGS16-Gao: modulators of RGS16 binding to Galphao, primary screen, biochemical, human proteins, multiplexed bead flow cytometry; bead-based flow cytometry RGS16-Galphao binding, fluorescence; actives lie on both sides; binding response (% of control), % at 10 µM; 220,000 tested, 0.38% active; AID 1441, 2008;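 active = below 25% or above 175%, edge rows of some plates excepted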;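 also: Galphao activated by GDP with aluminum fluoride before binding; 100% = wells without compound and 0% = beads without RGS; some results beyond the cut were filed as inactive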
# Target sequence (O15492 whole entry, looked up): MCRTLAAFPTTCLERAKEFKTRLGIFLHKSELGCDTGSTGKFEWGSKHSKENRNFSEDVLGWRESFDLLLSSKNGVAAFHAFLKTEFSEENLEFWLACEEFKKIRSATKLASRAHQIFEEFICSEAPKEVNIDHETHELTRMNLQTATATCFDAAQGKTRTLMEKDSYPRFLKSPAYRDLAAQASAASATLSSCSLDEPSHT
# Target sequence (P09471 whole entry, looked up): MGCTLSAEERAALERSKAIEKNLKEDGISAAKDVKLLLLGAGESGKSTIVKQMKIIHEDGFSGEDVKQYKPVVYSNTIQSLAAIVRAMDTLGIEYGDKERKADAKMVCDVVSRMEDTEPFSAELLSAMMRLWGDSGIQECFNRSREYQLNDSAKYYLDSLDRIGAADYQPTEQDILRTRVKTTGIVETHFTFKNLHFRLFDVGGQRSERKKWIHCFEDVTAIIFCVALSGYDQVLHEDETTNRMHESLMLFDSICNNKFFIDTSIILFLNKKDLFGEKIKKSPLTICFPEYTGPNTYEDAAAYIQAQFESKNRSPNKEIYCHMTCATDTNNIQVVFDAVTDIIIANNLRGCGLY
# INS promoter inh cell count: also measured in INS promoter inh; calls as there; normalized cell count, %; measured here: cell count, toxicity; reference of the scale not given here;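 cells exposed to compound for 48 h; stained nuclei by imaging scaled within each plate; lower means fewer cells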
# HSV augment primary fold: also measured in HSV augment; calls as there; fold increase; compound at 10 µM; measured here: primary screen fold increase 10 uM; tested in PC3 cells;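 GFP signal in the first replicate; 1 = infected wells without compound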
# * hit, by the source's call; i = inactive; nt = not tested or not shown.
SMILES,HSV augment,HSV augment primary fold,GALR2 ag,INS promoter inh,INS promoter inh cell count,PKD1 kinase inh,RGS16-Gao
Cc1ccc(-c2csc3ncnc(SCC(=O)c4ccc5c(c4)OCCO5)c23)cc1,i,0.86,-2.0,-8,70,8,88
CC(C)CN1CCC(CNC(=O)CCc2nnc(Cc3c[nH]c4ccccc34)o2)CC1,i,0.94,nt,19,109,-7,100
CSc1ccccc1C(=O)Nc1cccc(C)c1,i,1,-0.2,-29,121,-7,101
COc1cc(Cl)c(S(=O)(=O)NCCN2CCOCC2)cc1Cl,i,0.91,-1.4,12,141,-3,108
COc1cc(Cl)ccc1NC(=S)N(CCCN1CCOCC1)Cc1cn(C)c2ccccc12,i,0.62,-0.1,-43,62,2,97
CC(C)NC(=O)CN1CCN(Cc2nc(C(c3ccccc3)c3ccccc3)no2)CC1,i,1.1,nt,nt,nt,-2,98
Cc1ccc(N=Cc2c(O)cc(C)oc2=O)c(C)c1,i,1.1,nt,nt,nt,-2,91
O=C(Nc1ccc(O)c(C(=O)O)c1)Oc1ccccc1,i,0.92,nt,nt,nt,nt,94
O=C(NCCc1ccc(Cl)cc1)C1CCN(S(=O)(=O)N2CCC3(CC2)OCCO3)CC1,i,0.86,0.6,-23,72,5,101
CCOC(=O)c1oc2cc(OCC(N)=O)ccc2c(=O)c1-c1ccc(OC)c(OC)c1,i,1.1,-1.6,12,206,-6,106
C=CCNC(=S)NNC(=O)c1ccccc1,i,1,-1.5,-4,104,7,97
O=C(c1cc2sccc2n1Cc1ccccc1)N1CCN(c2nc3ccccc3s2)CC1,i,1.1,-2.2,0,135,-3,89

# Quoted at random: three entries already listed.
SMILES,HSV augment,HSV augment primary fold,GALR2 ag,INS promoter inh,INS promoter inh cell count,PKD1 kinase inh,RGS16-Gao
C=CCNC(=S)NNC(=O)c1ccccc1,i,1,-1.5,-4,104,7,97
Cc1ccc(-c2csc3ncnc(SCC(=O)c4ccc5c(c4)OCCO5)c23)cc1,i,0.86,-2.0,-8,70,8,88
O=C(c1cc2sccc2n1Cc1ccccc1)N1CCN(c2nc3ccccc3s2)CC1,i,1.1,-2.2,0,135,-3,89

# Going on with the list.
SMILES,HSV augment,HSV augment primary fold,GALR2 ag,INS promoter inh,INS promoter inh cell count,PKD1 kinase inh,RGS16-Gao
Cc1nc(C(=O)N2CCc3c([nH]c4ccccc34)C2c2cc(F)ccc2F)cs1 (centres undefined),i,0.82,nt,nt,nt,1,133
COc1ccc(CNC(=O)CCc2c(C)nc3cc(-c4ccccc4OC)nn3c2C)cc1,i,0.82,nt,nt,nt,nt,107
CC1=NN(C(C#N)c2ccccc2)C(C)(C)C1 (centres undefined),i,0.88,nt,nt,nt,2,100
COc1ccccc1CCNS(=O)(=O)c1c(C)n(C)c(=O)n(C)c1=O,i,1,-3.9,nt,nt,2,114
Cn1c(Cc2ccccc2)nnc1SCC(=O)Nc1cccc(S(=O)(=O)NC2=NCCCCC2)c1,i,0.94,nt,nt,nt,-6,99
Nc1n[nH]c(CO)n1,i,0.93,nt,nt,nt,nt,114
CCCCN(CCCC)C1=Nc2ccccc2N/C1=C(/C#N)C(=O)OCC,i,1.1,-0.3,3,169,4,100
COc1cc2c(cc1OC)CN(C(=S)NC(=O)c1ccccc1)CC2,i,0.95,nt,21,91,-4,91
CC(C)(O)C#Cc1ccc(CN2CCN(C3CCCCC3)C(CCO)C2)cc1 (centres undefined),i,1.2,nt,nt,nt,0,99
O=C(/C=C/c1ccc([N+](=O)[O-])s1)N1CCCC1,i,0.96,nt,nt,nt,-3,98
CC(C)(C(N)=O)c1ccccc1,i,0.99,nt,nt,nt,nt,99
O=C(c1noc2c1CCc1ccccc1-2)N1CCCc2ccccc21,i,1.1,-3.3,nt,nt,1,97
CCOC(=O)c1[nH]c(C)c(C(=O)NCCCOC(C)C)c1C,i,0.93,-1.1,-35,109,-9,108
Cc1cccc(COCC(CC(C)C)N2CCN(C(=O)c3ccc(C(C)(C)C)cc3)CCC2=O)c1 (centres undefined),i,0.85,-1.7,-30,75,-1,31
Cc1cc(COc2ccccc2OCc2cc(C)no2)on1,i,1,-1.4,-63,114,-6,99
CCSc1ccccc1C(=O)n1nnc2ccccc21,i,0.71,-1.3,-45,113,-11,nt
COC(=O)N1N=C(c2ccc(Br)cc2)CC1(O)C(F)(F)F (centres undefined),i,0.93,-0.2,31,93,-9,108
CCOC(=O)N1CCN(c2ccc(C(=O)c3ccccc3)cc2F)CC1,i,0.98,-1.9,6,117,0,94
Cc1c(C(=O)OC2CCCCC2)sc2nc[nH]c(=O)c12,i,0.98,-0.2,61,119,-6,98
COc1cccc(/C(O)=C2/C(=O)C(=O)N(Cc3cccnc3)C2c2ccco2)c1 (centres undefined),i,1,-2.4,33,82,-3,98
O=C(CSc1n[nH]c(=O)n1Cc1ccco1)Nc1ccccc1Cl,i,0.93,nt,nt,nt,nt,86
CC1(c2ccccc2)NC(=O)N(CCOc2ccccc2)C1=O (centres undefined),i,0.95,-0.8,18,64,11,104
Cc1cccc(-c2nnc(SCc3cc(=O)[nH]c4ccccc34)n2C)c1,i,1.1,-2.4,4,94,1,103
CCCCOC(=O)/C(=C/C=C/c1ccccc1)NC(=O)c1ccccc1,i,0.95,nt,-50,91,-5,98

# Single records, from the list above:
# CCCCOC(=O)/C(=C/C=C/c1ccccc1)NC(=O)c1ccccc1 is entered as HSV augment = i; HSV augment primary fold = 0.95; GALR2 ag = nt; INS promoter inh = -50; INS promoter inh cell count = 91; PKD1 kinase inh = -5; RGS16-Gao = 98
# O=C(CSc1n[nH]c(=O)n1Cc1ccco1)Nc1ccccc1Cl is entered as HSV augment = i; HSV augment primary fold = 0.93; GALR2 ag = nt; INS promoter inh = nt; INS promoter inh cell count = nt; PKD1 kinase inh = nt; RGS16-Gao = 86

# (further entries)
SMILES,HSV augment,HSV augment primary fold,GALR2 ag,INS promoter inh,INS promoter inh cell count,PKD1 kinase inh,RGS16-Gao
CCOC(=O)C1=C(C)NC(C)=C(C(=O)OCC)C1c1cccs1,i,1,-2.4,-17,66,2,117
O=C(N/N=C/c1ccccn1)c1cccnc1,i,1.1,nt,nt,nt,nt,95
Cc1ccc(NC(=O)CSc2nc(N)cc(=O)[nH]2)cc1Cl,i,0.94,nt,0,111,0,96
O=C(c1ccccc1Br)N1CCCC(c2nc(-c3cccs3)no2)C1 (centres undefined),i,0.94,nt,nt,nt,0,100
CC(C)(C)c1ccc(C(=O)NNC(=O)Cc2ccccc2)cc1,i,0.87,-1.6,-79,123,2,88
COc1ccc(-c2cc(-c3n[nH]c(=S)n3-c3ccccc3Cl)[nH]n2)cc1,i,1,nt,0,120,-2,92
Nc1nc(-c2ccc([N+](=O)[O-])cc2)cs1,i,0.9,0.2,nt,nt,10,73
Cn1c(=O)c2c(nc(N3CCCCCC3)n2CC(O)COc2ccc(Cl)cc2)n(C)c1=O (centres undefined),i,0.85,-0.1,-15,42,-4,106
Cc1cnn(Cc2cccnc2)c1N,i,0.98,nt,nt,nt,nt,103
CCOC(=O)c1oc2nc(CC(C)C)c3c(c2c1N)CCCC3,i,0.92,nt,nt,nt,nt,111
O=C(NCc1ccc2c(c1)OCO2)c1ccc(CSCc2cccc(Cl)c2)o1,i,1,0.1,-61,51,-9,105
O=C(O)CSCCOc1ccc(OCCSCC(=O)O)cc1,i,1,-1.5,7,92,-4,71
CCSc1nc2ccccc2n1CC(=O)N1CCOCC1,i,0.95,-0.7,0,88,-9,100
CCOc1ccc(CNc2ccc3c(c2)nc(C)n3C)cc1,i,0.97,-0.3,-44,170,-2,62
COC(=O)c1sccc1NC(=O)Nc1cc(C)ccc1C,i,0.97,nt,nt,nt,-3,98
N=c1sccn1CC(=O)N1N=C(c2ccc(Cl)cc2)CC1c1ccco1 (centres undefined),i,1,nt,nt,nt,0,102
Cc1ccc(S(=O)(=O)N2CCN(c3cnn(C)c(=O)c3Cl)CC2)cc1,i,0.91,nt,22,104,-7,99
COc1cccc(C(=O)Nc2cc3c(cc2Br)OCCCO3)c1,i,0.93,-0.1,-8,104,-7,107
CCOc1ccc2nc(NC(=O)C3=NN(c4ccccc4)C(=O)CC3)sc2c1,i,0.99,nt,nt,nt,2,105
Cc1oc(-c2cccc(F)c2)nc1CN1CCCCC1CCn1cccn1 (centres undefined),i,0.92,nt,-117,84,2,102
Cc1cc(/C=C\c2nc(O)c([N+](=O)[O-])c(=O)[nH]2)c(C)n1-c1ccccc1,i,1,nt,nt,nt,0,87
CCSC1(SCC)N=C(N)C2(C#N)C(c3ccccc3)NC(C)=C(C)C12C#N (centres undefined),i,1,-2.1,nt,nt,-7,98
O=C(Cc1nn[nH]n1)Nc1ccc(F)cc1F,i,0.98,nt,nt,nt,nt,86
COc1cc(/C=C/C(=O)OCC(=O)N2CC(=O)Nc3ccccc32)ccc1O,i,0.83,nt,nt,nt,nt,102
CC(C1CC1)N(Cc1ccccc1)C(=O)NC(=O)c1ccc(F)cc1 (centres undefined),i,1,nt,nt,nt,0,97
COC(=O)c1sc(NC(=O)CSc2nnnn2-c2ccc(C)cc2C)nc1C,i,0.86,-1.9,nt,nt,0,98
O=C1Nc2ccccc2C12Nc1ccccc1-c1nc3ccccc3n12 (centres undefined),i,0.96,-2.1,nt,nt,-9,112
O=c1cc(N2CCOCC2)[nH]c(=O)n1-c1ccc(Br)cc1,i,0.92,-4.2,nt,nt,1,101
COc1cc(C2OCC3C(c4cc(OC)c(OC)c(OC)c4)OCC23)cc(OC)c1OC (centres undefined),i,0.94,nt,nt,nt,nt,94
O=C(O)CCC(=O)N1CCC(C(=O)c2cccc(Cl)c2)CC1,i,0.73,-2.4,20,75,5,102
NC(=O)c1ccc(NC(=O)COC(=O)CCCN2C(=O)c3cccc4cccc(c34)C2=O)cc1,i,0.96,-1.4,-100,47,-2,76
O=C(Nc1ccccc1)c1ccccc1CC[N+](=O)[O-],i,0.88,-2.4,-68,136,0,101
CC(=O)c1ccc(OCC(O)CN2CCN(CC(O)COc3ccc(C(C)=O)cc3)CC2)cc1 (centres undefined),i,1.1,-2.1,-389,56,7,72
Cn1c(/C(C#N)=C(\O)c2ccc(S(=O)(=O)N3CCCCC3)cc2)nc2ccccc21,nt,nt,-1.5,27,109,-9,90
Cc1ccc(S(=O)(=O)c2nc(Nc3ccccc3C#N)sc2Cl)cc1,i,1.1,-0.2,nt,nt,10,97
Cc1onc(-c2ccccc2)c1C(=O)Nc1nc2c(s1)C(=O)CC(C)(C)C2,i,0.9,-2.0,34,87,-1,102
COc1ccc(CN2C(=O)CCC2(C)C(=O)NC2CCCC2)c(OC)c1 (centres undefined),nt,nt,0.1,70*,80*,-1,90
Cc1nn(-c2ccccc2)c(Cl)c1C(=O)Nc1ccccc1,i,0.79,-1.1,52,143,-9,106
Cc1ccc(-c2nnn(CC(=O)N(c3ccccc3)C(C(=O)NCC3CCCO3)c3ccc(Cl)cc3)n2)cc1 (centres undefined),i,1,-2.2,-3,144,-8,46
CCCn1c(NCCO)nc2ccccc21,i,0.93,0.0,-58,110,-9,111
O=C(Nc1ccccc1Cl)C1C2CCC3C(CCC21)C3(Cl)Cl (centres undefined),i,1,-0.7,0,87,7,14
CC(=O)OCc1cc2cccc(C)c2[nH]c1=O,i,0.98,-2.6,nt,nt,-16,101
O=C(CCCCn1c(=O)[nH]c2ccccc2c1=O)NCCc1c[nH]c2ccccc12,nt,nt,-0.8,30,100,-6,91
Cc1ccccc1NC(=O)c1cc([N+](=O)[O-])ccc1NCCN1C(=O)CCC1=O,i,1.1,nt,nt,nt,10,106
COc1ccc(OC)c(/C(O)=C/C(=O)C(=O)Nc2ccccc2OC)c1,i,0.89,-2.9,-29,141,-7,98
COc1ccc(Cl)cc1NC(=O)CS(=O)(=O)c1cccc2nsnc12,i,0.9,-2.7,-8,81,0,98
O=C(Cn1nc(C(=O)O)c2ccccc2c1=O)NCCC1=CCCCC1,i,0.86,-0.6,nt,nt,-9,106
CCOC(=O)C1CCCN(C(=O)/C=C/c2ccccc2[N+](=O)[O-])C1 (centres undefined),i,0.92,-2.1,19,107,-6,101
CC(C)NC1CS(=O)(=O)CC1O (centres undefined),i,0.93,-0.6,19,108,-4,92
COc1ccc(-c2cc(C3CCN(C(=O)OC(C)(C)C)CC3)[nH]n2)cc1,i,1,nt,nt,nt,4,96
COc1ccc([C@@]2(O)c3c(ccc(CC=C(C)C)c3O)NC(=O)[C@@H]2OC)cc1,i,1.1,nt,nt,nt,nt,89
O=C(CSc1ncn[nH]1)Nc1c(F)cc(F)cc1Br,nt,nt,-2.6,-8,57,-10,102
CCOc1c2ccc(C(=O)NCc3ccco3)cc2nn1CCOC,i,0.83,-1.3,nt,nt,-2,102
